TRPV1 potentiator – enhances activation of the human vanilloid receptor TRPV1. potentiation, % at 8.33 µM. TRPV1-expressing cells, Fluo-8 calcium influx, capsaicin EC20 potentiation; host cell line not named in the record; control for the full effect not named in the record. Q8NER1. 320,000 compounds, 0.02% hits; active means potentiation above 80%; inconclusive means 30% to 80%; inactive means below 30%; further: 0% is about no effect
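Cells expressing TRPV1 were dye-loaded with Fluo-8 and read kinetically: 10 s baseline, 3 min after compound (agonist portion), then 2 min after EC20 capsaicin (allosteric enhancer portion). Calcium-bound dye fluorescence at 480/520 nm.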
Sfp PPTase inh – blocks B. subtilis Sfp PPTase activity. Potency, µM, for inactives: max response, negative = inhibition, actives largely listed as inhibitors. 310,000 compounds, 3.5% hits. Biochemical Sfp PPTase activity, qHTS; active means well fitted inhibition curve with a large enough effect; inconclusive means small, poorly fitted or top-dose-only effect, or another doubt; inactive means no such curve, though single readings can be large or run the other way;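 further: the enzyme is Sfp with the accession as filed and its product quenches rhodamine fluorescence; potency means the concentration at half of the fitted maximal effect; 0% = enzyme reaction without inhibitor and -100% = no enzyme wells; top concentration of the series not given in the record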
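With Hepes-Na pH 7.6 buffer containing 10 mM MgCl2, Sfp (15 nM) modified BHQ-2-YbbR (12.5 uM) using rhodamine-CoA (5 uM). Two reads 30 minutes apart at 525/598 nm yielded each well's rate.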
D2 ag – human D2 receptor agonism in beta-arrestin assay | P14416 | DiscoveRx PathHunter D2 beta-arrestin, luminescence, 90 min; 100% = 57 uM dopamine signal | activation, % (no concentration beside the values) | 360,000 compounds, 0.084% hits; in the data active = activation above about 40%; inconclusive = about 15% to 40%; inactive = below about 15%; further: compound concentration not given in the record; the text of the record calls up to 30% inactive
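DiscoveRx PathHunter D2 beta-arrestin cells (2,100/well) attached overnight, then compound-stimulated 90 min at 37 C in HBSS/10 mM HEPES/0.1% Tween-20 buffer; beta-galactosidase complementation read by luminescence after 1 h at ambient temperature. Dopamine 57 uM final (EC100) as control.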
Six1-Eya2 inh – blocks human Six1 binding to Eya2. AlphaScreen GST-Six1/His-Eya2 binding, biochemical; stronger effect = lower value; control for the full effect not named in the record. activity change, % (concentration not given with the values). 360,000 compounds, 0.56% hits. AID 651725; in the data active = activity change below about -65%; inconclusive = about -30% to -65%; inactive = above about -30%; further: on the % scale 0 is the no-effect control and ±100 the full control effect
Target sequence (O00167 whole entry, looked up): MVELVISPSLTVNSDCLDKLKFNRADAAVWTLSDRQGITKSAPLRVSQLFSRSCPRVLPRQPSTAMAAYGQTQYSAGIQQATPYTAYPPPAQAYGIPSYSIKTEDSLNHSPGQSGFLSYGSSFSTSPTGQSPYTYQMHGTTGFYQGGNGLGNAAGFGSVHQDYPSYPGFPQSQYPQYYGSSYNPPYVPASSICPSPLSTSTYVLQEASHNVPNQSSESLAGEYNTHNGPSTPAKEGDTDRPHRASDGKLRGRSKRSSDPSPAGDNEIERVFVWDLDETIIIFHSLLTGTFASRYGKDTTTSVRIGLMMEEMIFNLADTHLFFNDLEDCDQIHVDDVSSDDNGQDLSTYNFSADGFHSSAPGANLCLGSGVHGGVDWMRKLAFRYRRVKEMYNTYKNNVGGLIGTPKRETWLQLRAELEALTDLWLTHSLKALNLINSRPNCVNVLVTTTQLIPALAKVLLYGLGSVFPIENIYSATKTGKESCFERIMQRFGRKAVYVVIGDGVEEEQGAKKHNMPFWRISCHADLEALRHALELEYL
Target sequence (Q15475 whole entry, looked up): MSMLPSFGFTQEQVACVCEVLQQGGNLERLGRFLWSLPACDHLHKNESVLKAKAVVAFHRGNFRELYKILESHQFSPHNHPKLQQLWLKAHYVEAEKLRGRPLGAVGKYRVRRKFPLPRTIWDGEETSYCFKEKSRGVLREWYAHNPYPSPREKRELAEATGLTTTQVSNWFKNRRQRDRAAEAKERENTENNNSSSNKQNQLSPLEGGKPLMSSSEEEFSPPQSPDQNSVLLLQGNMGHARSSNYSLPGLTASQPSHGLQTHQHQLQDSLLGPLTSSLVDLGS
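AlphaScreen luminescence read after one hour at 37 °C in darkness. Pin-transferred compounds met GST-Six1 and His-Eya2 protein (5X stock 250 nM/500 nM) plus glutathione donor and Ni-chelate acceptor beads (5X, 50 ug/mL).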
CtBP-E1A blk – CtBP/E1A binding inhibition; AlphaScreen GST-E1A/His-CtBP binding, 1536-well; stronger effect = lower value; control for the full effect not named in the record; activity change, % (test concentration not listed); 340,000 compounds, 0.49% hits; AID 651724; in the data active means activity change below about -65%; inconclusive means about -30% to -65%; inactive means above about -30%; further: on the % scale 0 is the no-effect control and ±100 the full control effect
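AlphaScreen with 125 nM GST-E1A and 125 nM His-CtBP (5X stocks) in Tris pH 8.0, 300 mM NaCl, BSA, Tween 20, TCEP. Compounds preincubated 2 h at 37 deg C, then glutathione donor/nickel acceptor beads added for 1 h at 37 deg C in dark.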
PINK1 modulator – modulators of PINK1 expression | PINK1 immunofluorescence, high-content cytometry, 24 h | Potency, µM (highest dose often 76.6 µM), without a hit: at the top dose activation (PINK1 increase), usual class: activators | 410,000 compounds, 0.2% hits | AID 624263; active = well fitted activation curve with a large enough effect; inconclusive = small, poorly fitted or top-dose-only effect; inactive = flat fitted curve, though single readings scatter; cell line not stated here;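 further: potency means the concentration at half of the fitted maximal effect; % of control where 0% means no effect; nearly all actives have a fitted effect of over 65% in size; a mitochondrial uncoupler was the plate control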
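Stable cell line treated 24 h with compounds at 5 concentrations (CCCP controls), then fixed and immunostained for PINK1 plus nuclear and cell stains; PINK1 immunofluorescence quantified by laser-scanning microplate cytometry.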
D2 potentiator – positive allosteric modulators of human D2 dopamine receptor. P14416. DiscoveRx D2 beta-arrestin cells, luminescence, 90 min; 100% = 57 uM dopamine signal. potentiation, % (concentration not given with the values). 360,000 compounds, 0.23% hits. AID 624464; active = potentiation of 50% or more; inconclusive = 30% to 50%; inactive = 30% or less;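 further: tested on top of an EC20 dose of dopamine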
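PathHunter D2 cells, attached overnight at 37 deg C, received compound in DMSO plus dopamine at EC20 (50 nM final) for 90 min at 37 deg C. Beta-arrestin recruitment was read as luminescence after 1 h with detection reagent at ambient temperature.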
The depositor's hits bear a star; ? = inconclusive; / = not tested or not shown; [ ] = remark or other dose. The order is random; any-hit rate near 3.7%.

SMILES	TRPV1 potentiator	Sfp PPTase inh	D2 ag	Six1-Eya2 inh	CtBP-E1A blk	PINK1 modulator	D2 potentiator
CC1(C)Cc2nc3oc4c(=S)nc[nH]c4c3cc2CO1	-3	22µM*	-1.7	-1	11	0.3%	-8
CCOC(=O)c1c2c([nH]c(=S)c1C#N)CCCC2	7	40µM*	-4.0	-5	-2	0.0%	-1
CCc1ccc2[nH]c(=O)c(C(c3nnnn3Cc3ccco3)N3CCC(C)CC3)cc2c1 (centres undefined)	3	6%	0.8	-1	2	8.7%	-6
O=C1c2cccc(OCc3ccc(F)cc3)c2CCN1Cc1ccc(F)cc1	-4	?	0.5	17	1	13%	-17
CC(=O)c1ccc(NC(=O)c2ccc(N3CCCC3=O)cc2)cc1	-5	/	0.1	5	6	-2.4%	-10
Oc1c(CN2CCCCC2)ccc2cccnc12	/	/	-0.6	-80*	-93*	-0.1%	-17
Cc1cccc(CN2CCc3c(OCC(=O)NCc4ccco4)cccc3C2=O)c1	-4	-9%	1.1	-8	-17	-2.3%	-5
Cc1ccc(S(=O)(=O)N2CCC3(CC2)OCCO3)cc1	-6	10%	-2.6	2	1	-0.2%	-8
COc1cccc(CNCCNC(=O)c2nonc2N)c1	-4	15%	-2.9	3	42	-0.7%	-18
C=CCNC(=S)Nc1ccc(Cl)cc1	-8	23%	0.6	-2	/	-0.2%	-5
Cc1nccn1CCOc1ccccc1Cl	18	17%	-4.2	-6	10	2.5%	-4
CCN(CC)c1nc(-c2ccccc2)nc2c1sc(=S)n2CC	14	6%	6.8	1	3	0.8%	-3
COc1ccc(C2c3cc(OC)c(OC)cc3CCN2S(C)(=O)=O)cc1OC (centres undefined)	-3	13%	-3.6	-7	9	-2.6%	2
c1cncc(N=c2scc(-c3cccc4ccccc34)n2CCCn2ccnc2)c1	5	-10%	0.2	-24	-24	-1.4%	5
N#Cc1c(NC(=O)C2CCCO2)sc2c1CCCCCC2 (centres undefined)	-13	-7%	-0.3	4	-2	-0.3%	-8
COc1cc(OC)c2c3c(c(C4CCCCC4)nc2c1)CCCC3	/	/	-0.1	5	-1	9.7%	/
N#CCCN(Cc1cccnc1)C(=O)Nc1ccccc1	-6	12%	3.2	5	-14	-0.4%	-7
CNC(=O)COC(=O)c1cccc(S(=O)(=O)N2CCN(c3ccc(F)cc3)CC2)c1	-1	27%	-1.5	2	-5	0.3%	-6
Cc1ccc(-c2cc(C(=O)N/N=C/c3ccccc3)n[nH]2)o1	3	7%	3.1	-1	-6	5.0%	-3
N/C(=N\OC(=O)c1ccc(Cl)c([N+](=O)[O-])c1)c1ccccc1	-1	2%	12	-1	/	-1.1%	94*
Cc1ccc2nc(NC(=O)c3ccc(Cn4cc(Cl)cn4)o3)sc2c1	-7	-3%	2.1	-6	-2	-0.3%	11
COc1ccc(NC(=O)CC2Oc3ccccc3NC2=O)cc1 (centres undefined)	4	7%	-4.8	7	3	-1.5%	-16
COc1ccc2nc(N(CCN(C)C)C(=O)c3ccc4ncsc4c3)sc2c1	/	/	-5.9	-8	3	-1.0%	-21
Cc1nc2ccc(S(=O)(=O)NC(C(=O)N3CCCC3)C(C)C)cc2s1 (centres undefined)	16	7%	-1.0	8	8	1.0%	-4
O=C(N/N=C/c1ccc[nH]1)c1ccccc1[N+](=O)[O-]	0	0%	-1.2	-4	-4	2.2%	-12

Other structures follow.
SMILES	TRPV1 potentiator	Sfp PPTase inh	D2 ag	Six1-Eya2 inh	CtBP-E1A blk	PINK1 modulator	D2 potentiator
COc1ccccc1CCc1nnc(CCC(=O)NC(C)Cc2ccsc2)o1 (centres undefined)	-4	4%	-4.3	18	-11	0.2%	6
C=CCN(c1ccccc1OC)S(=O)(=O)c1ccc(Cl)c(C(=O)NCc2ccco2)c1	/	/	1.9	-3	-2	2.0%	-3
CSc1nnc(-c2ccccc2N=Cc2c(C)[nH]n(-c3ccccc3)c2=O)c(=O)[nH]1	26	11%	-0.3	-24	-14	3.1%	-14
CCOc1cccc(-c2nnc3sc(COc4ccc(Cl)cc4)nn23)c1	-5	18%	-0.6	-2	0	9.3%	4
COc1ccc(C(=O)NC(C)CCc2ccccc2)cc1 (centres undefined)	-30	7%	4.6	1	-4	-0.4%	-9
N#Cc1cn(-c2ccccc2)nc1C(=O)c1ccccc1	-17	13%	1.2	-3	7	5.9%	3
COc1ccc(NC(=O)c2ccco2)c(OC)c1	-3	-6%	-2.7	4	8	1.7%	-10
O=C(c1c(F)cccc1Cl)N1CCN(S(=O)(=O)c2ccc3c(c2)OCCCO3)CC1	6	12%	2.0	-1	8	3.6%	17
CCOC(=O)c1ccc(-n2c(CN(CC)CC)nc3ccc([N+](=O)[O-])cc3c2=O)cc1	4	22µM*	0.4	6	0	1.3%	1
C=CCNc1nc(Nc2ccc(OC)cc2)nc(OC)n1	-8	2%	-1.0	-3	0	0.5%	-4
CCOC(=O)Cc1cc(=O)n2[nH]c(-c3ccccc3)cc2n1	-8	-9%	-0.4	2	6	5.7%[38.3 µM]	-11
COC1=CC(=O)c2c(ccc3ncnc(N)c23)C1=O	/	/	?	?	5	4.2%	?
CN(C)S(=O)(=O)c1ccc(Oc2ccccc2)cc1	4	8%	0.2	5	3	-2.9%	-8
COC(=O)CC1COc2ccccc2N1C(=O)c1ccc(Cl)cc1 (centres undefined)	-5	9%	-0.4	-1	2	-1.2%	2
CCOC(=O)c1c(C)[nH]c(C)c1S(=O)(=O)NCC1CCN(Cc2ccc(C)cc2)CC1	4	8%	-2.0	-5	-3	0.7%	-32
COc1cccc(CCNC(=O)c2cc(COc3cccc(OC)c3)on2)c1	/	/	0.6	3	2	1.0%	-8
O=C(COC(=O)c1ccc2c(c1)OCCO2)Nc1cc(Cl)ccc1Cl	?	?	-1.6	-2	0	0.3%	-16
Cc1ccc(F)cc1NC(=O)Cc1nn(C)c(=O)c2ccccc12	4	3%	-1.1	3	-3	3.0%	4
COc1ccc(NC2CCCN(C(=O)c3ccc(CSC)o3)C2)cc1OC (centres undefined)	-3	1%	-2.7	-4	-4	-0.5%	-4
COCCCn1cc(CN2CC(N3CCN(Cc4cccc(C)c4)CC3)CS2(=O)=O)nn1 (centres undefined)	/	/	/	1	3	-0.8%	/
CCc1c(C)nc(SCC(=O)Nc2nc(-c3ccc(OC)cc3)cs2)[nH]c1=O	7	20%	1.8	-3	-19	0.9%	5
O=C(CCCOc1ccccc1)N1CCN(S(=O)(=O)c2cccs2)CC1	-18	19%	-1.3	4	16	3.1%	-7
Cc1cccc(/C=N\Nc2nnc(-c3ccccc3)c(=O)[nH]2)c1	1	-13%	-0.4	4	1	7.2%	9
COc1ccccc1NC(=S)NNC(=O)c1ccccc1Br	21	-9%	-10.0	-3	1	-0.5%	-21
COc1cc(C(=O)NCc2ccc(C(=O)NCC(OC)OC)cc2)cc(OC)c1OC	7	20%	-3.4	2	0	3.7%	-7

Reformatted comma-delimited: part of the list above.
SMILES,TRPV1 potentiator,Sfp PPTase inh,D2 ag,Six1-Eya2 inh,CtBP-E1A blk,PINK1 modulator,D2 potentiator
CN(C)S(=O)(=O)c1ccc(Oc2ccccc2)cc1,4,8%,0.2,5,3,-2.9%,-8
COC(=O)CC1COc2ccccc2N1C(=O)c1ccc(Cl)cc1 (centres undefined),-5,9%,-0.4,-1,2,-1.2%,2
CCOC(=O)c1c(C)[nH]c(C)c1S(=O)(=O)NCC1CCN(Cc2ccc(C)cc2)CC1,4,8%,-2.0,-5,-3,0.7%,-32

Entries of single compounds, looked up by structure. Screens in order: TRPV1 potentiator | Sfp PPTase inh | D2 ag | Six1-Eya2 inh | CtBP-E1A blk | PINK1 modulator | D2 potentiator
N#Cc1cn(-c2ccccc2)nc1C(=O)c1ccccc1 is entered as -17 | 13% | 1.2 | -3 | 7 | 5.9% | 3
COc1cc(OC)c2c3c(c(C4CCCCC4)nc2c1)CCCC3 is entered as / | / | -0.1 | 5 | -1 | 9.7% | /
COc1cc(C(=O)NCc2ccc(C(=O)NCC(OC)OC)cc2)cc(OC)c1OC is entered as 7 | 20% | -3.4 | 2 | 0 | 3.7% | -7
COC(=O)CC1COc2ccccc2N1C(=O)c1ccc(Cl)cc1 (centres undefined) is entered as -5 | 9% | -0.4 | -1 | 2 | -1.2% | 2

(list continues)
SMILES	TRPV1 potentiator	Sfp PPTase inh	D2 ag	Six1-Eya2 inh	CtBP-E1A blk	PINK1 modulator	D2 potentiator
Cc1ccc(NC(=O)C(c2ccccc2)C2CCCC2)cc1 (centres undefined)	-12	-3%	-1.9	17	11	1.2%	-5
CC(C)[C@H](NC(=O)N1CCn2c1nc1ccccc12)C(=O)NCc1ccc(F)cc1	-10	6%	-5.2	15	25	1.1%	-15
Cc1ccccc1CCNC(=O)Cn1nc(C)c2c(C)n(-c3ccccc3)nc2c1=O	-7	3%	-5.3	-3	0	0.1%	-8
CCCCN(C(=O)C1CCN(C(=O)c2ccccc2C)CC1)c1c(N)n(CC(C)C)c(=O)[nH]c1=O	/	/	-3.2	-2	0	0.3%	-6
O=C(Cn1cc([N+](=O)[O-])cn1)Nc1ccn(Cc2c(F)c(F)c(F)c(F)c2F)n1	-13	5%	-3.6	1	6	1.0%[38.3 µM]	-4
COc1ccc2nc(C)cc(Sc3nc4ccccc4s3)c2c1	-6	?	-0.3	1	0	-3.9%	-13
CCc1ccc(-c2ccc3nnc(SC)n3n2)cc1	3	4%	0.0	0	/	1.1%	-10
COc1cc(OC)c(OC)cc1CNc1nnnn1C	1	14%	2.3	-4	-18	0.5%	2
CCCCC(=O)N1CCN(c2nc(-c3ccc(F)cc3)cs2)CC1	-10	2%	0.3	-16	-2	3.8%	-5
CC(=O)Nc1nc(NC(=O)C(Cl)(Cl)Cl)n(-c2ccccc2)n1	/	28%	-0.7	-29	4	-0.7%	-4
c1ccc2c(C3OCC4(CCCCC4)CO3)cccc2c1	/	/	-1.5	3	4	12%	-5
COc1ccc(C(=O)CSc2cc(C)nc(SCC(=O)c3ccc(C)cc3)n2)cc1	2	7%	-0.3	-4	6	8.7%	-7
Cc1ccc(-c2cc(C(=O)Nc3cc(C)ccc3O)no2)cc1	-19	30%[activator]	-1.5	0	7	4.1%	-2
Cn1cc(CCNC(=O)c2ccc3nc(Cc4ccccc4F)oc3c2)cn1	-1	7%	-2.6	0	3	0.4%	-1
CCN1C(=O)c2cccc3c(Cl)ccc(c23)C1=O	-3	22%	-1.1	-1	-1	-0.9%	-13

From PubChem BioAssay
